Screening data: PubChem BioAssay, several laboratories
eIF4H inh – inhibitors of RNA binding by human eIF4H; inhibition, % at 35 µM; eIF4H fluorescence polarization binding assay; AID 2012; 0.94% of 290,000 active;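 active means 50% or more with normal probe brightness, or confirmed in later tests; inconclusive means above 50% with abnormal brightness, or retests that disagree; inactive means below 50% or failed in later tests; about a fifth of its hits are not listed in these tables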;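 further: calls also rest on retests at 20 µM and on dose response follow-up; 0% = protein and probe with vehicle and 100% = probe without protein; strong numbers were not always called active; many hits fall short of the cut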
PABP FP inh – blocks human PABP binding to poly(A) RNA. P11940. 1% of 290,000 active. inhibition, % at 35 µM. fluorescence polarization;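 active means 50% or more with normal probe brightness, or confirmed in later tests; inconclusive means above 50% with abnormal brightness, or retests that disagree; inactive means below 50% or failed in later tests; about a fifth of its hits are not listed in these tables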;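 further: calls also rest on retests at 20 µM and on dose response follow-up; controls were probe without protein and protein plus probe with vehicle; some compounds called inactive have numbers as strong as hits; many hits fall short of the cut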
Target sequence (P11940 whole entry, looked up): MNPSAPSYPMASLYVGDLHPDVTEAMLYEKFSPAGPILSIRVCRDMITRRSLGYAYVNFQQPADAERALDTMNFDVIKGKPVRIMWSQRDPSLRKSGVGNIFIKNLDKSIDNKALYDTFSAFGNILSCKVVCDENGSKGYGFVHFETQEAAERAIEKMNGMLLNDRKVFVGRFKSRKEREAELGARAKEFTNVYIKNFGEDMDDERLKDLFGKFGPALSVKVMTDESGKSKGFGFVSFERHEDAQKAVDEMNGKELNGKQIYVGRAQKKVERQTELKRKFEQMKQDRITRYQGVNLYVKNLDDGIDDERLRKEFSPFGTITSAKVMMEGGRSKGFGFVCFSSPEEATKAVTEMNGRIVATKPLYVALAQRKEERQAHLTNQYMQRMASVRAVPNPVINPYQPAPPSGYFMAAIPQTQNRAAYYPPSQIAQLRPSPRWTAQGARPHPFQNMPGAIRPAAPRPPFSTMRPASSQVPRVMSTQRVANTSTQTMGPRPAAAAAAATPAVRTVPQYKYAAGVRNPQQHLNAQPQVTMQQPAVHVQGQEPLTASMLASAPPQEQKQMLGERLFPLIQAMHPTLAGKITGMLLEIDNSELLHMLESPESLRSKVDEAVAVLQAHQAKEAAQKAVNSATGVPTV
HIV Env fusion – inhibitors of HIV Env-mediated cell fusion | AID 651610 | inhibition, % at 12.3 µM | HeLa-JRFL Env/CEM21 cell fusion, luciferase | 1.1% of 360,000 active;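 active means mean replicate inhibition score of at least 50 and every replicate individually at or above 50; inconclusive means only one of the two criteria met; inactive means mean below 50 and not all replicates reaching 50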;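 further: 0% = plate neutral controls and 100% = maraviroc near 300 nM; one replicate is shown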
UUG fidelity – modulators of start codon recognition fidelity in yeast | S. cerevisiae UUG-firefly luciferase reporter, luminescence/redox ratio | activity score, % at 18.7 µM | 0.13% of 350,000 active;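 active means replicate mean at a twofold rise or more, about +100% in these data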;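 further: firefly luciferase made from a UUG start codon reports start codon fidelity; reporter light over untreated wells divided by growth signal over untreated wells; some hits fall short of that in this replicate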
CSC inhib – cancer stem cell inhibition. cancer stem cell-like cells viability, luminescence. inhibition, % at 7.5 µM. 1.1% of 300,000 active;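 active means mean at 75% or more and at least half the replicates too; inconclusive means mean and replicates disagree; tested in HMLE shEcad cells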;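 further: 0% = median of negative and 100% = median of positive control wells; the first replicate is given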
Rce1 inh – blocks yeast Ras-converting enzyme. yeast membranes, quenched prenylated peptide cleavage fluorescence. 0.27% of 290,000 active. AID 2563. calls only;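 active means fall in fluorescence gain of 50% or more versus controls, with final raw signal at or below 3038400; inconclusive means same 50% fall but final raw signal above 3038400; inactive means fall in fluorescence gain under 50%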;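 further: plate controls were neutral control wells for no effect and wells lacking membranes for full effect; tested at 10 µM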
Target sequence (Q03530 whole entry, looked up): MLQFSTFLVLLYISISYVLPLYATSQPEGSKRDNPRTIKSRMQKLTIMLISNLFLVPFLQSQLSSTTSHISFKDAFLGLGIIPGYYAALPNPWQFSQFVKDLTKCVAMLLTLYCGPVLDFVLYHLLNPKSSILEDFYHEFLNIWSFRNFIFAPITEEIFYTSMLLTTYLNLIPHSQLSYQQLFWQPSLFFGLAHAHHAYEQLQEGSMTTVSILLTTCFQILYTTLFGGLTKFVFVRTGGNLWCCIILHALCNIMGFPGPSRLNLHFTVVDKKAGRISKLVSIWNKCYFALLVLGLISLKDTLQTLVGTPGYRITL
MT1-MMP act inh – blocks activation of human MT1-MMP; P50281; 0.061% of 360,000 active; HT1080 RFP-PRO-GFP cells, GFP/RFP ratio fluorescence, overnight; percent of plate control window, DMSO zero; AID 651647; GFP/RFP ratio change, % at 20 µM;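 active means GFP/RFP ratio change of at least 30% with cell ATP level not reduced by more than half and red fluorescence within 50% of control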; further: strong numbers were not always called active
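system = RFP-PRO-GFP reporter HT1080 cells | dosing = 20 µM single dose, 1% DMSO | timing = overnight cell settling, then overnight compound exposure, 37 °C, 5% CO2 | read-out basis = GFP/RFP fluorescence ratio | controls = DMSO and RFP-L50D-GFP cell wells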
eIF4H inh retest – also measured in eIF4H inh; calls as there; inhibition, %; compound at 20 µM; confirmation average;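 mean of two retest wells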
PABP FP inh retest – second read-out of PABP FP inh, no call of its own (marks repeat the call); inhibition, %; compound at 20 µM; confirmation repeats;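 mean of two retest wells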
MT1-MMP act inh RFP – also measured in MT1-MMP act inh; calls as there; RFP signal change, %; measured here: RFP expression control read;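 0 = vehicle wells; hits needed this value within 50% of zero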
* = called active by the depositor; i = inactive; ? = inconclusive; · = not tested or not shown; & = joins results of further samples.

SMILES | eIF4H inh | PABP FP inh | HIV Env fusion | UUG fidelity | CSC inhib | Rce1 inh | MT1-MMP act inh | MT1-MMP act inh RFP | others
Cc1ccc(NC(=S)N(C)C(c2ccccc2)c2ccccc2)cc1C | -5 | 10 | 19 | -24 | 28 | i | -4 | -4
COc1ccc(C(=O)O)cc1NC(=S)NC(=O)c1ccc(-c2ccc(Cl)cc2)o1 | 64 | -15 | -56 | · | · | i | 3 | 4 | eIF4H inh retest=-9;PABP FP inh retest=6
CC(C)Oc1ccc(C(=O)N(CN2CCCC2=O)c2ccc(F)cc2)cc1 | -2 | 1 | -5 | 3 | -6 | i | 0 | 1
O=C(/C=N/O)Nc1ccccc1C(=O)O | -4 | 19 | 10 | -6 | -1 | · | 2 | 2
CCN1C(=S)N[C@@H](c2cccc(F)c2)C(C(=O)OC)=C1C | -11 | 4 | 6 | -16 | -13 | i | 2 | -3
COc1ccc(-c2csc(/C(C#N)=C\c3ccc(O)c([N+](=O)[O-])c3)n2)cc1OC | -9 | 16 | -11 | 14 | 45 | i | 6 | -30
COc1ccc(S(=O)(=O)N(C)Cc2ccc3c(c2)OCCO3)cc1 | · | · | -3 | 19 | · | · | 0 | 2
O=C(NCCCn1ccnc1)/C(=C\c1ccccc1F)NC(=O)c1ccccc1 | -6 | 8 | -8 | -3 | -5 | i | -4 | -1
NC(=O)C1CCN(C(=O)CCn2c(=O)oc3ccccc32)CC1 | · | · | · | -38 | -5 | · | -43 | -1
COC(=O)c1[nH]c2cc(C)ccc2c1NC(=O)CN1CCc2cc(OC)c(OC)cc2C1 | -9 | 2 | · | 17 | -2 | i | -2 | -6
COc1ccc(-c2nc(CN3CCC(C(=O)N4CCOCC4)CC3)c(C)o2)cc1OC | -4 | -6 | -1 | -16 | -1 | i | -2 | 0
COc1ccc([N+](=O)[O-])cc1NC(=O)c1ccc(N(Cc2ccccc2C)S(C)(=O)=O)cc1 | -2 | 17 | · | · | -7 | i | 5 | -3
CCc1ccccc1NC(=O)C1CCN(S(=O)(=O)c2ccc3c(c2)N(C(C)=O)CCO3)CC1 | -6 | -6 | 5 | -11 | -18 | i | 1 | -2
CC(OC(=O)C1=COCCO1)C(=O)Nc1cc(S(=O)(=O)N2CCCCC2)ccc1Cl (stereo unspecified) | -6 | 21 | 16 | 13 | -6 | i | 1 | 0
Cc1ccc(C2C(C#N)=C(N)SC(N)=C2C#N)cc1 | ? | ? | -51 | -8 | · | · | -211 | 0
OCC[C@H]1C[C@@H](O)[C@H](O)[C@]2(OCc3ccccc32)O1 | · | · | -19 | -13 | -16 | · | 0 | 3
CCOC(=O)c1ccccc1NC(=O)CSc1ccc(-c2cccnc2)nn1 | 6 | 6 | 28 | -10 | 3 | i | -4 | 1
Cc1ccc(-n2c(C)nc3c(cnn3-c3ccc(C)c(C)c3)c2=O)cc1C | -11 | -4 | -63 | -8 | 14 | i | -1 | -7
O=C(c1cnsn1)N1CCN(c2ccccc2)CC1 | 3 | -4 | · | -9 | 6 | · | -3 | 0
CN(C)S(=O)(=O)c1ccc2c(c1)C(=NO)c1cc(S(=O)(=O)N(C)C)ccc1-2 | -4 | 10 | -1 | -6 | -3 | i | -3 | -4
CCC(=O)Nc1nnc(SCC(=O)NC2CCCC2)s1 | -5 | 5 | -7 | -21 | -13 | i | -4 | -5
CC(=O)Nc1cccc(NC(=O)c2cc(Cl)ccc2Cl)c1 | -2 | 0 | 5 | -34 | -5 | i | -3 | 4
COc1ccccc1NC(=O)CCCc1nc(-c2ccc(OC)c(OC)c2)no1 | 1 | -4 | -19 | -6 | 15 | i | -3 | 1
COc1ccc2c(c1)nc(CN1CCN(CCO)CC1)n2C | 2 | 5 | 11 | -8 | 5 | i | 0 | 2
CC(NC(=O)C(C)(C)C)C(c1cccs1)N1CCOCC1 (stereo unspecified) | -3 | -4 | -6 | -9 | -12 | i | 3 | 2

Further compounds
SMILES | eIF4H inh | PABP FP inh | HIV Env fusion | UUG fidelity | CSC inhib | Rce1 inh | MT1-MMP act inh | MT1-MMP act inh RFP | others
O=C(Nc1cccc(S(=O)(=O)N2CCCC2)c1)c1cncc(Br)c1 | · | · | · | -8 | -1 | · | 3 | -4
COc1ccccc1NC(=S)NC(=O)C(C)C | -3 | 4 | · | -19 | -13 | i | 1 | 5
COc1cc2[nH]cc(C(=O)NCCc3ccccc3)c(=O)c2cc1OC | 4 | 0 | · | -9 | -3 | i | 4 | -2
C[C@H](CO)N1C[C@H](C)[C@H](CN(C)S(=O)(=O)c2ccc3c(c2)OCCCO3)OCc2cnnn2CCCC1=O | · | · | -1 | -11&8 | · | · | -1 | 0
CCOC(=O)N1CCC(NC(=O)C2=CCN(S(=O)(=O)c3ccc(F)cc3)CC2)CC1 | -6 | 2 | -2 | -14 | 6 | i | 4 | 1
O=C(Cn1c(-c2ccccc2)noc1=O)Nc1ccc(N2CCCCCC2)cc1 | 1 | 12 | -58 | 6 | -6 | i | -6 | -1
Cc1ccc(C(=O)CC2(O)C(=O)Nc3ccccc32)s1 (stereo unspecified) | 0 | -5 | -68 | -8 | 11 | i | 3 | 10
O=C1c2ccccc2NC2CCCCC12 (stereo unspecified) | 6 | -9 | · | -19 | -7 | i | 2 | -2
C=CCOc1ccc(C(=O)CC)cc1OC | -12 | 4 | -1 | 1 | -5 | i | 3 | 6
CCOC(=O)c1c(C)[nH]c(C(=O)NCCc2ccc(OC)c(OC)c2)c1C | -14 | -1 | 1 | 0 | 15 | i | 0 | 5
C[C@H](CO)N1C[C@H](C)[C@@H](CN(C)S(=O)(=O)c2ccc3ccccc3c2)OCc2cn(nn2)CCCC1=O | · | · | -9 | 5&10 | · | · | 4 | 6
COc1ccc2cc(CCNC(=O)c3ccc(Br)o3)c(=O)[nH]c2c1 | -13 | 0 | -31 | 1 | -6 | i | -2 | 3
Cc1cc(NC(=O)c2cccc(S(=O)(=O)N3CCOCC3)c2)c2ccccc2n1 | -4 | -3 | · | 11 | · | i | 3 | -7
COc1ccc(-c2cc3ccccc3oc2=O)cc1NC(=O)c1cccnc1 | -8 | 8 | 2 | -28 | 6 | i | 9 | 1
CC(=O)Nc1ccc(C(=O)NC(C)c2ccc(-n3ccnc3)cc2)cc1 (stereo unspecified) | -8 | 4 | -2 | -19 | -2 | i | -2 | 0
CCOc1ccc(-c2nnc3sc(-c4ccccc4OC)nn23)cc1 | · | · | -14 | -12 | · | · | 3 | -5
O=C(O)CCn1cc(/C=C2\SC(=S)NC2=O)c(-c2ccccc2)n1 | -2 | -17 | -11 | -22 | 14 | i | -16 | 8
COc1ccc(NC(=O)Nc2ccc(OC)c(OC)c2)c([N+](=O)[O-])c1 | 2 | -6 | · | -6 | 1 | i | 3 | 2
CCOC(=O)/C(C#N)=C/Nc1cc(F)ccc1C | 3 | -2 | -7 | -5 | 2 | i | 0 | -5
CC1CCCCN1S(=O)(=O)c1ccccc1[N+](=O)[O-] (stereo unspecified) | -7 | -30 | -1 | -4 | -10 | i | 4 | 2
COC(=O)c1cc(=O)n(C2CC2)c(=NC2CC2)s1 | -8 | -15 | -49 | · | -11 | i | -2 | -1
Cc1ccc(N2CC(C(=O)OCc3nnc(-c4ccccc4)o3)CC2=O)cc1 (stereo unspecified) | · | · | -2 | -7 | 9 | · | 2 | 3
CCCCNC(=O)c1ccc(CS(=O)(=O)c2ccc(OC)cc2)o1 | 8 | -7 | -3 | -24 | 0 | i | -4 | -1
CC1CCCCN1c1nc2nonc2nc1N1CCCCC1C (stereo unspecified) | 4 | 0 | -1 | -10 | 5 | i | -1 | -3
CS(=O)(=O)Nc1cccc(C2=NN(S(=O)(=O)c3ccccc3)C(c3cccs3)C2)c1 (stereo unspecified) | -11 | -5 | · | 6 | 5 | i | 2 | -2

In the list so far, three have a COOH group:
SMILES | eIF4H inh | PABP FP inh | HIV Env fusion | UUG fidelity | CSC inhib | Rce1 inh | MT1-MMP act inh | MT1-MMP act inh RFP | others
COc1ccc(C(=O)O)cc1NC(=S)NC(=O)c1ccc(-c2ccc(Cl)cc2)o1 | 64 | -15 | -56 | · | · | i | 3 | 4 | eIF4H inh retest=-9;PABP FP inh retest=6
O=C(/C=N/O)Nc1ccccc1C(=O)O | -4 | 19 | 10 | -6 | -1 | · | 2 | 2
O=C(O)CCn1cc(/C=C2\SC(=S)NC2=O)c(-c2ccccc2)n1 | -2 | -17 | -11 | -22 | 14 | i | -16 | 8

Other records
SMILES | eIF4H inh | PABP FP inh | HIV Env fusion | UUG fidelity | CSC inhib | Rce1 inh | MT1-MMP act inh | MT1-MMP act inh RFP | others
Cc1cc(C)n(CC(=O)n2c3ccccc3c3ccccc32)n1 | -4 | -2 | · | 0 | -4 | i | 0 | -2
O=C(O)c1ccc(/C=C2\SC(=S)N(NC(=O)c3ccccc3)C2=O)cc1 | 1 | 20 | 2 | -17 | 4 | i | 10 | 18
O=C(CCc1nc2ccccc2[nH]1)Nc1ccccc1 | 9 | -4 | · | -7 | -4 | i | 3 | 2
COc1ccc(CCN=C(N)NS(=O)(=O)c2ccc(C)cc2)cc1 | 6 | 1 | -21 | -2 | -2 | i | 6 | 3
O=C(O)CCC(=O)Nc1ccc(OCC(=O)O)cc1 | -12 | -2 | -6 | -19 | -3 | i | 3 | 2
CCCCSc1nnc([C@@H]2CCCN2C(=O)OC(C)(C)C)o1 | -1 | -8 | · | -10 | -3 | i | 3 | 2
CC(Cc1ccco1)NC(=O)c1ccc(C(F)(F)F)cc1 (stereo unspecified) | 4 | -8 | -53 | -38 | -7 | · | 2 | 4
CC(C)c1onc(C(=O)N2CCC(C(N)=O)CC2)c1[N+](=O)[O-] | -13 | -10 | -14 | 0 | -13 | i | -2 | 2
CCC[C@@H](O)c1cc2cc(OC)c(OC)cc2c(=O)o1 | · | · | -10 | -11 | -6 | · | 0 | 0
CCOc1ccc(NC(=O)NCc2cccnc2)cc1 | -17 | -3 | 0 | · | -14 | i | 0 | 4
CC1CCN(c2ccc3nnc(CCC(=O)Nc4ccc(F)c(F)c4)n3n2)CC1 | 4 | 9 | 3 | -15 | -13 | i | 1 | -1
O=S1(=O)C=C(SCc2ccccc2)Nc2ccccc21 | -4 | -1 | · | -12 | 16 | i | 2 | -3
COc1ccc(C2SCC(=O)N2c2ccccc2)cc1 (stereo unspecified) | -8 | -1 | 8 | -12 | -4 | i | 5 | 5
CCC(=O)N1CCN(c2ccc(Cl)cc2NC(=S)NC(=O)c2ccco2)CC1 | -7 | -1 | 10 | 0 | -7 | i | -10 | -11
Cc1cc(NS(=O)(=O)c2ccc(Nc3nc(-c4ccc(O)cc4)cs3)cc2)no1 | -9 | -2 | 10 | · | 4 | i | 2 | 4
COc1ccc(-n2ncc3c2CC(C)(C)CC3NC(=O)Cc2nonc2C)cc1 (stereo unspecified) | 0 | 2 | 4 | -6 | -12 | i | 2 | -1
CC1CCCN(c2ncnc3c2cnn3-c2ccccc2)C1 (stereo unspecified) | -4 | 6 | -38 | -76 | 43 | i | -3 | 0
COc1ccc(NC(=O)Nc2c(C)noc2-c2ccccc2)cc1 | -9 | -3 | 3 | · | -6 | i | 1 | 3
CCc1cc(=O)oc2c(C)c(OC(C)C(=O)NCC3CCC(C(=O)O)CC3)ccc12 (stereo unspecified) | -4 | -7 | · | -16 | -14 | i | 6 | -2
CCn1nnc(NC(=O)c2cc3ccccc3o2)n1 | 2 | 2 | -89 | -21 | -2 | i | -4 | -3
O=S(=O)(Cc1ccccc1)NCCc1cccc(Cl)c1 | -10 | -8 | -97 | -8 | · | i | 1 | -3
